MT1-MMP act inh = blockers of MT1-MMP proenzyme processing, primary screen, HT1080 RFP-PRO-GFP cells, GFP/RFP fluorescence; Matrix metalloproteinase-14 (Homo sapiens), P50281; GFP/RFP ratio fluorescence, overnight; percent of plate control window, DMSO zero; GFP/RFP ratio change, % at 20 µM; hit rate 0.061% among 360,000;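 active means GFP/RFP ratio change of at least 30% with cell ATP level not reduced by more than half and red fluorescence within 50% of control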; further: strong numbers were not always called active
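Read-out: GFP/RFP fluorescence ratio; Test system: RFP-PRO-GFP reporter HT1080 cells; Compound dosing: single-point 20 µM compound, 1% DMSO; Times: overnight compound exposure at 37 °C.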
UUG fidelity = modulators of yeast start codon fidelity, primary screen, whole organism, S. cerevisiae, single point, plate reader. S. cerevisiae UUG-firefly luciferase reporter, luminescence/redox ratio. AID 602363, 2012. activity score, % at 18.7 µM. hit rate 0.13% among 350,000;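 active means replicate mean at a twofold rise or more, about +100% in these data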;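 further: firefly luciferase made from a UUG start codon reports start codon fidelity; reporter light over untreated wells divided by growth signal over untreated wells; some hits fall short of that in this replicate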
MT1-MMP act inh RFP = recorded beside MT1-MMP act inh, whose call it bears; RFP signal change, %; measured here: RFP expression control read;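 0 = vehicle wells; hits needed this value within 50% of zero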
* marks the source's active call; other numbers are inactive results; & = joins results of further samples.

SMILES	MT1-MMP act inh	MT1-MMP act inh RFP	UUG fidelity
COc1ccc(S(=O)(=O)N2CCCCC2c2cc(C(=O)Nc3ccc(F)c(Cl)c3)no2)cc1 (stereo not drawn)	-5.9	-26.7	-12.0
NS(=O)(=O)c1ccc(CCNC(=O)c2cc(-c3ccco3)nc3ccccc23)cc1	-4.2	0.9	-6.7
Cc1ccccc1CN1CCN(C(=O)[C@H]2O[C@@H](n3ccc(=O)[nH]c3=O)[C@H](O)[C@@H]2O)CC1	5.4	5.1	3.6
Oc1ccc(Cc2ccccc2)c2cccnc12	11.8	-2.7	-69.4
Cc1ccc(F)c(C(=O)N2CCCC(C)(C(=O)NS(=O)(=O)C3CC3)C2)c1F (stereo not drawn)	1.5	6.2	-40.3
CC(=O)c1cccc(NC(=O)CSc2n[nH]c(-c3ccncc3)n2)c1	-1.1	0.5	-13.9
CC1(C(=O)NS(=O)(=O)Cc2ccccc2C(F)(F)F)CCN1C(=O)c1cccc(F)c1 (stereo not drawn)	-0.4	7.7	-13.4
COc1ccccc1NC(=O)N(C)C[C@H]1OCc2cnnn2CCCC(=O)N([C@@H](C)CO)C[C@H]1C	6.4	6.9	-18.7&3.5
COc1ccc(C=NNc2ccc([N+](=O)[O-])cn2)cc1	-6.9	0.1	0.1
CC(C#N)OC(=O)c1cccnc1SCC(=O)Nc1ccc2c(c1)OCO2 (stereo not drawn)	2.1	2.0	-19.6
COc1ccc(NC(=O)COC(=O)CC2CCCCC2)cc1	3.3	1.7	-10.9
Cc1ccccc1C(=O)NCC(=O)NNC(=O)c1cccc(Cl)c1	-1.8	2.0	-15.3
Cc1c(NC(=O)c2cccc(NC(=O)Cc3ccc(F)cc3)c2)c(=O)n(-c2ccccc2)n1C	0.5	2.6	-8.5
CCCCN1CC(COCc2ccccc2)Oc2cccc(Oc3ccc(C)cc3)c2S1(=O)=O (stereo not drawn)	-0.8	-10.3	-18.9
COc1cccc(-c2cnc(C(O)c3ccc(F)c(C)c3)[nH]2)c1 (stereo not drawn)	-0.3	-1.0	-13.1
CCCc1nc2ccccc2c(C(=O)N(CC)CC(=O)NCc2cccs2)c1CC	-0.6	-0.4	-3.3
COc1ccccc1CN(C)C(=O)CN1CCN(CC(=O)Nc2ccccc2Cl)CC1	1.3	0.2	-5.2
CC(C)N(C(=O)[C@H]1C[C@H](CC(=O)NC(C)(C)C)C(=O)N2CCc3c([nH]c4cc(-c5ccco5)ccc34)[C@]12C)C(C)C	-6.1	-12.8	-1.2
CCOc1ccccc1C(=O)OCC(=O)Nc1cc(S(=O)(=O)N2CCOCC2)ccc1C	0.6	-0.9	2.2
Cc1cc2c(=O)n(C)c(SCC(=O)NCC3CCCO3)nc2s1 (stereo not drawn)	-4.3	2.6	-29.0
C[C@H](CO)N1C[C@H](C)[C@H](CN(C)C(=O)Nc2ccc(N3CCN(C)CC3)cc2)OCc2cnnn2CCCC1=O	-1.2	1.1	-11.7
COc1cc2nncc(SC)c2cc1OC	-1.2	2.5	-35.0
COC(=O)C(C)(C)c1cccnc1C#N	5.1	4.1	-3.1
COc1ccc(NS(=O)(=O)c2cc(NC(=O)C3=NN(c4ccccc4)C(=O)CC3)ccc2C)cc1	1.2	-7.3	-8.9
CSc1ncccc1C(=O)OCC(=O)N1CC2(C)CC1CC(C)(C)C2 (stereo not drawn)	-0.6	-1.7	6.5
SMILES	MT1-MMP act inh	MT1-MMP act inh RFP	UUG fidelity
CC[C@H](C)C1OC(=O)[C@@H](C)[C@@H](CC)NC(=O)[C@H](C)N(C)C(=O)C(C)(C)C(=O)C(C)NC(=O)[C@H](Cc2ccc(OC)cc2)N(C)C(=O)[C@H](C(C)C)N(C)C(=O)CNC(=O)[C@H](CC(C)C)N(C)C(=O)CNC1=O (stereo partly drawn)	-7.8	-19.2	83.5
O=C(CNC(=O)c1ccccc1Cl)Nc1ccncc1	-3.1	-3.3	-23.8
COc1ccc(OC)c(C2=CC(=O)C[C@H](c3ccc(F)cc3)C2)c1	0.0	-1.0	-20.5
S=C(c1ccccc1)N1CCN(c2ccccc2)CC1	4.4	1.3	-13.7
CC(=O)c1ccc(N2CCN(C(=O)c3ccccc3SCC(=O)NCc3ccco3)CC2)c(F)c1	-2.7	-6.1	-17.9
Nc1cc2c(cc1Cl)-c1ccccc1C2=NO	-6.7	-8.0	-13.4
CC(C)(C)C(=O)Nc1ccc(C(=O)CSc2nnc(C3CC3)n2C2CC2)cc1	-3.9	-1.1	-4.1
O=C(/C=C/c1ccc(F)cc1)OCC(=O)c1ccc[nH]1	-2.1	-0.2	14.5
OC(c1ccc(-c2ccccc2)cc1)c1ncc(-c2ccccc2)[nH]1 (stereo not drawn)	7.3	-0.6	6.8
COCCNC(=O)C1CCCN(Cc2cccc(Cl)c2)CC1 (stereo not drawn)	5.1	4.9	-13.6
CC(C(=O)N1CCc2ccccc21)n1cnc2c1c(=O)n(C)c(=O)n2C (stereo not drawn)	1.6	-5.1	-9.2
CS(=O)(=O)c1ccc(C(=O)N2CCN(S(=O)(=O)c3ccc(C4CCCCC4)cc3)CC2)cc1	5.1	-17.8	-4.9
CC1CCC(NC(=O)COC(=O)C2=NN(c3ccccc3)C(=O)CC2)CC1 (stereo not drawn)	4.0	3.4	-3.8
CCNC(=O)C1CCCN(C(=O)c2ccc(C(F)(F)F)cc2)CC1 (stereo not drawn)	3.8	5.5	-11.4
OC(COc1ccc(-c2ccccc2)cc1)CN1CCCCC1 (stereo not drawn)	4.7	3.6	5.9
COc1ccc(NC(=O)c2ccc(OC)c(S(=O)(=O)N3CCCCC3C)c2)cn1 (stereo not drawn)	-3.1	-5.4	3.3
COc1ccc(-c2nc(NC(=O)C3CC(=O)N(Cc4ccco4)C3)sc2C)cc1 (stereo not drawn)	-5.8	-18.6	1.2
COc1cc(C(=O)OCC(=O)N2CCN(S(=O)(=O)c3ccc(C)cc3C)CC2)c([N+](=O)[O-])cc1OC	-0.5	-0.6	-2.1
Cc1ccc([C@H]2C[C@@H](n3cc(-c4ccc(F)cc4)nn3)[C@H](O)CN2C(=O)C2CCCCC2)cc1	-2.3	-4.4	-0.5
Cc1ccc2cc(NC(=O)C3(C)CCN3CC(C)C)ccc2n1 (stereo not drawn)	-2.4	-3.7	-19.6
CCOc1ccc(NC(=O)CC(NC(C)=O)c2ccccc2)cc1S(=O)(=O)N1CCCC1 (stereo not drawn)	-4.2	2.6	-3.8
CC(OC(=O)Nc1ccccc1)C(=O)OC1CCCCC1 (stereo not drawn)	2.8	2.7	3.1
Cn1c(SCC(=O)Nc2ccc(N3CCOCC3)cc2)nnc1C(F)(F)F	-0.9	2.3	-8.1
CC(c1ccc2ccccc2c1)c1ccccc1C(=O)O (stereo not drawn)	1.5	2.0	-11.0
CC1CC1C(=O)OCC(=O)NNC(=O)c1ccc([N+](=O)[O-])cc1 (stereo not drawn)	3.2	5.1	8.3

Exported as comma-separated lines: entries from further up.
SMILES,MT1-MMP act inh,MT1-MMP act inh RFP,UUG fidelity
COc1ccc(NS(=O)(=O)c2cc(NC(=O)C3=NN(c4ccccc4)C(=O)CC3)ccc2C)cc1,1.2,-7.3,-8.9
CC(OC(=O)Nc1ccccc1)C(=O)OC1CCCCC1 (stereo not drawn),2.8,2.7,3.1
OC(COc1ccc(-c2ccccc2)cc1)CN1CCCCC1 (stereo not drawn),4.7,3.6,5.9

Additional records.
SMILES	MT1-MMP act inh	MT1-MMP act inh RFP	UUG fidelity
Cc1cc2nc(-c3cccc(Cl)c3)c(Cc3ccccc3)n2c(C)c1Br	2.9	1.7	13.6
O=C1NC(Cc2ccccc2)c2nc3ccc(F)cc3c(=O)n2-c2ncccc21 (stereo not drawn)	2.9	0.0	-36.6
COc1ccc(-c2ccc3[nH]c4c(c3c2)CCN2C(=O)[C@@H]([C@H](C)O)[C@@H](N(C)C(=O)Nc3cc(Cl)cc(Cl)c3)C[C@@H]42)cc1	-11.3	-17.0	-2.4
CC(=O)NC12CC3CC(C1)CC(C(=O)N1CCN(C(=O)c4ccco4)CC1)(C3)C2	3.4	2.5	-12.9
CC(C)(C)S(=O)N1Cc2cc(C(=O)N3CCOCC3)nc(-c3cccc(Br)c3)c2[C@@H]1CCO (stereo partly drawn)	2.5	6.1	1.8
COc1ccc(NC(=O)CN(C)C(=O)C2CCCO2)cc1 (stereo not drawn)	0.7	2.4	-15.5
CCN(CC)C(=O)C1=C(C)N(CCCOC)C(=O)C(CC(=O)NCc2cccc3ccccc23)C1 (stereo not drawn)	4.7	8.3	-15.5
CC(C)(C)c1cc2nc(NCCOc3ccccc3)ccn2n1	5.5	6.2	-9.4
O=C(CSc1ccc(S(=O)(=O)N2CCOCC2)cn1)Nc1ccc(F)c(F)c1	-6.5	-27.0	1.4
CCOc1ccc(N=Cc2ccc(N(C)C)cc2)c(O)c1	5.1	31.8	0.1
O=C(Nc1c(-c2ccc3c(c2)OCO3)[nH][nH]c1=O)c1cccc(C(F)(F)F)c1	-4.1	-26.4	-11.5
Cc1cc(C([O-])=C(C(=S)Nc2ccc(F)cc2)[n+]2ccccc2)c(C)n1-c1ccc(F)cc1	2.2	5.5	-21.9
O=C1C2C3C=CC(CC3)C2S(=O)(=O)C2C3C=CC(CC3)C12 (stereo not drawn)	2.6	0.8	-6.5
CC(=O)O[C@@H]1C[C@@]2(C)[C@@H](CC[C@H]2[C@@H](C)/C=C\CC(C)C)C2=C[C@@H](O)[C@@]3(O)C[C@@H](O)[C@H](O)C[C@]3(CO)[C@]21O	-0.7	1.2	-1.8
CC1=C(C(=O)N(C(C)C)C(C)C)CC(CC(=O)NCCN2CCOCC2)C(=O)N1CCC1=CCCCC1 (stereo not drawn)	1.6	4.8	-2.6
Fc1ccc(-c2nc3ccc(Br)cn3c2Cc2ccccc2C(F)(F)F)cc1	-0.4	1.2	-6.3
O=c1cc(C=NNc2ccc([N+](=O)[O-])cc2)[nH]c(=O)[nH]1	-0.2	2.0	-17.2
COc1ccc(C2OCC(C)([N+](=O)[O-])CO2)cc1 (stereo not drawn)	1.5	0.3	-16.9
CC1OC2CC(=O)OC2C2=C1C(=O)c1c(O)cccc1C2=O (stereo not drawn)	-178.3	-30.0	-78.1
CC(Sc1nnc(C2CC2)n1C1CC1)C(=O)c1ccc(F)cc1 (stereo not drawn)	-3.5	-3.1	-20.5
Cc1ccc(NC(=O)CN(C)C(=O)c2cccc(S(=O)(=O)N3CCCC3)c2)cc1	2.0	3.6	15.9
COc1cccc(-n2cc(CN(C)C(=O)C3CCC(=O)N(C4CC4)C3)cn2)c1 (stereo not drawn)	1.4	0.6	-26.1
Cc1nn(C)c(C)c1NC(=O)COc1ccc(Cl)cc1Br	8.1	-29.6	-15.1
CN(CC(=O)Nc1cc(S(=O)(=O)N2CCCC2)ccc1Cl)Cc1nc2ccccc2c(=O)[nH]1	4.4	-5.0	-11.5
CSc1ncnc2[nH]ccc12	-1.5	-1.7	-4.9

Next part, overlapping the part above by 2 compounds.
SMILES	MT1-MMP act inh	MT1-MMP act inh RFP	UUG fidelity
CN(CC(=O)Nc1cc(S(=O)(=O)N2CCCC2)ccc1Cl)Cc1nc2ccccc2c(=O)[nH]1	4.4	-5.0	-11.5
CSc1ncnc2[nH]ccc12	-1.5	-1.7	-4.9
Cc1ccc(S(=O)(=O)NCCC(=O)N2CCN(c3ccccc3)CC2)cc1C	0.5	4.0	-1.3
O=C(NCC(c1cccs1)N1CCOCC1)c1cn(-c2ccccc2)nc1-c1ccccc1 (stereo not drawn)	0.2	-2.4	-3.9
COC(=O)c1c(C)[nH]c(C(=O)C(C)OC(=O)C2CC2C)c1C (stereo not drawn)	10.7	0.3	-8.1
CCCCN(C(=O)c1cc2c(s1)CCC2)c1c(N)n(CC(C)C)c(=O)[nH]c1=O	-1.3	-1.1	-3.8
C=CCn1c(SCC(=O)NCC2CCCO2)nnc1-c1ccncc1 (stereo not drawn)	12.5	3.8	-8.7
O=C(COC(=O)/C=C/c1ccccc1)NC1CC1	1.1	9.4	-22.4
CCOc1ccccc1N1CCN(CC(=O)Nc2ccccc2C(=O)NC2CC2)CC1	5.1	1.4	-15.7
N#Cc1nccc2ccc(OCc3ccc(Br)cc3)cc12	-1.3	-0.4	-23.1
Cc1ccccc1CNC(=O)c1[nH]c(C(F)(F)F)nc1-c1ccccc1	-2.3	-6.1	-7.8
CCCCn1c(SCC(=O)NC(=O)Cc2ccccc2)nc2ccccc2c1=O	2.9	-0.2	-14.4
CCCN(CCC)Cc1cc(=O)oc2cc(C)c(Cl)cc12	-1.3	1.4	-6.6
CCN(CC(=O)NC1CCS(=O)(=O)C1)C(=O)c1ccc(OC)c([N+](=O)[O-])c1 (stereo not drawn)	-4.1	2.1	-25.9
CCc1ccccc1OCC(=O)Nc1cccc(S(=O)(=O)NC2=NCCC2)c1	0.3	1.0	1.1
CC(C)CC1C(=O)N(Cc2cn(CCC3OCCCO3)nn2)CCS(=O)(=O)N1Cc1ccc(-c2ccc(Cl)nc2)cc1 (stereo not drawn)	0.0	-3.9	-9.8
CCN(CC(=O)Nc1cc(C)on1)CC(=O)Nc1ccccc1C(F)(F)F	-2.3	2.6	1.4
COc1ccc2nc3n(c(=O)c2c1)-c1ccc(Cl)cc1C(=O)NC3Cc1ccc(O)cc1 (stereo not drawn)	-2.2	1.0	-2.6
CC1CC(C)CN(S(=O)(=O)c2cccc(C(=O)N3CCN(c4ccc(F)cc4)CC3)c2)C1 (stereo not drawn)	-0.1	-4.7	-2.0

Compound activity (PubChem BioAssay)

A portion of the library. The share of hits here may be higher or lower than overall.
